Screening results (PubChem BioAssay)
Vaccinia Venus: qHTS for Stage-Specific Inhibitors of Vaccinia Orthopoxvirus: Venus Reporter Primary qHTS | AID 720580, 2013 | Potency, µM (highest dose often 36.5 µM), for inactives: at the highest dose activity change, negative = inhibition, actives largely listed as inhibitors | actives 0.46% (n = 330,000) | Vaccinia virus Venus reporter expression, fluorescence; active means well fitted inhibition curve with a large enough effect; inconclusive means small, poorly fitted or top-dose-only effect; inactive means no such curve, though single readings can be large or run the other way; tested in A549 cells; further: nearly all actives have a fitted effect of over 30% in size; inactives centre near -10
Vaccinia mCherry: qHTS for Stage-Specific Inhibitors of Vaccinia Orthopoxvirus: mCherry Reporter Primary qHTS; Potency, µM (series often up to 36.5 µM), for the others: at the highest dose activity change, negative = inhibition, actives largely listed as inhibitors; Vaccinia virus mCherry reporter infection, fluorescence; about a quarter of the inactives have no number; actives 0.63% (n = 310,000); active = well fitted inhibition curve with a large enough effect; inconclusive = small, poorly fitted or top-dose-only effect; inactive = no such curve, though single readings can be large or run the other way; tested in A549 cells; further: nearly all actives have a fitted effect of over 35% in size; inactives centre near -10
* hit, by the source's call; i = inactive; u = inconclusive; x = not tested or not shown; & = joins results of further samples; [ ] = remark or other dose. On the % scale 0 is the no-effect control and ±100 the full control effect; potency means the concentration at half of the fitted maximal effect.

Values run as follows: Vaccinia Venus	Vaccinia mCherry
CCC(C)NS(=O)(=O)c1ccc(NC(=O)CNCc2cccs2)cc1 (stereo not drawn)
→ -11%	i
O=C(COc1ccccc1F)Nc1ccc(S(=O)(=O)NCc2ccco2)cc1
→ -30%	u
CC(C)c1nnc(NC(=O)c2ccc3ccccc3c2)s1
→ -12%	-7%
COc1cc(SC)ccc1C(=O)Nc1ccc(C)cc1C
→ -11%	-10%
CCOc1ccccc1CNC(=O)c1c(C)oc2ncnc(N3CCOCC3)c12
→ -13%	i
COc1ccc(C(=O)OC(C)C(=O)NC(C)CCc2ccccc2)cc1[N+](=O)[O-] (stereo not drawn)
→ -9%	-19%
O=[N+]([O-])CC(=Nc1ccc(Cl)cc1)N/N=C\c1oc(O)c2ccccc12
→ -10%	-17%
Cc1cc(C)cc(NS(=O)(=O)c2ccc3[nH]cc(C(=O)NCc4ccccc4Cl)c(=O)c3c2)c1
→ -23%	-16%
CC1(C)CC(=O)C(C=NCC2CCNCC2)=C(O)C1
→ -10%	x
Cc1cc(C(=O)OCC(=O)Nc2c(Cl)cccc2Cl)c(C)o1
→ -15%	-1%
Cc1ccc(C)c(-n2ccnc2SCC(N)=O)c1
→ -6%	0%
C#CCOCCOCCOCCNc1nc(N2CCN(C(=O)[C@H]([C@@H](C)CC)n3cc(CCC(=O)O)nn3)CC2)nc(N2CCN(C(=O)[C@H](CCCCN)n3cc(CCC(=O)O)nn3)CC2)n1
→ 19%	-14%
COc1ccc(NC(NC(=O)c2ccc(OC)cc2)C(Cl)(Cl)Cl)cc1 (stereo not drawn)
→ -18%	-24%
CN(Cc1c(F)cccc1Cl)C(=O)c1ccc(NC(=O)CC2SC(N3CCCC3)=NC2=O)cc1 (stereo not drawn)
→ u	-19%
Cc1csc2nc(CNS(=O)(=O)c3cccnc3)cn12
→ -8%	i
COc1ccc(-n2c(SCC#N)nc3ccccc3c2=O)cc1
→ -28%	x
C[C@H]1CN([C@@H](C)CO)C(=O)CCCn2cc(nn2)CO[C@@H]1CN(C)C(=O)Nc1ccc(C(F)(F)F)cc1
→ -13%	-2%
COc1cccc(/C=N/Nc2nn3cnnc3c3ccccc23)c1
→ -4%	-11%
CCC1(CC)C(=O)C2=C3C1[C@H](C(=O)OC)C=C(C(=O)OC)C[C@H]3[C@H]1C(=O)N(Cc3ccccc3)C(=O)[C@H]1[C@H]2C (stereo partly drawn)
→ -16%	-3%
Oc1ccccc1/C=N/n1cnnc1
→ -6%	x
CCN(C(=O)Cn1c(=O)oc2cc(S(=O)(=O)N3CCCCCC3)ccc21)c1cccc(C)c1
→ -6%	-22%
CCOC(=O)c1ccc(-n2cc(C(=O)c3cccnc3)nn2)cc1
→ -4%	-13%
CCOC(=O)CCCc1sc(N)nc1-c1[nH]c(=O)[nH]c1C
→ -22%	0%
COc1ccc(-c2[nH]nc3nc(-c4cc(OC)c(OC)c(OC)c4)cc(C(=O)O)c23)cc1
→ -7%	-7%
CCOc1ccc(S(=O)(=O)N2CCCC(C(=O)NCc3ccncc3)C2)cc1C (stereo not drawn)
→ u	i
COC(=O)c1ccc(CSc2nnc(-c3ccc4c(c3)OCO4)n2-c2ccccc2)o1
→ -20%	-14%
COc1cccc(CNc2nc3cc(-c4ccsc4)sc3c(=O)n2C)c1OC
→ -14%	13%
O=C(COc1ccc(-c2ccccc2)cc1)NNC(=O)Nc1ccc(F)cc1F
→ -1%	i
CCOC(=O)Cc1csc(NC(=O)NC2(C(F)(F)F)Oc3ccc(Cl)cc3O2)n1 (stereo not drawn)
→ -32%	x
COc1ccccc1N1CCCSC1=Nc1ccccc1
→ -12%	i
COc1cccc(NC(=S)N2CCCC2c2ccc(OC)c(OC)c2)c1 (stereo not drawn)
→ -13%	i
Cc1ccc([C@H]2C[C@@H](n3cc(COC(=O)c4ccccc4)nn3)[C@H](O)CN2CC2CCCCC2)cc1
→ 0%	i
Cc1cc(Nc2ccccc2)n(-c2ccc(Br)cc2)n1
→ -25%	x
Clc1ccc(-c2cn(-c3ccc(Cl)cc3)c3[n+]2CCCCC3)cc1
→ -10%	-6%
Cc1cc(C)n2nc(C(=O)OCC(=O)NNC(=O)c3ccc(Cl)cc3)nc2n1
→ -16%	-12%
C/C(Cc1ccccc1)=N\NC(=O)CNC(=O)c1ccccc1O
→ 1%	-9%
Cc1nnc(NC(=O)c2ccc(S(=O)(=O)N3CC(C)CC(C)C3)cc2)o1 (stereo not drawn)
→ -13%	-27%
Cc1cccc(C2NC(=O)c3c(sc4c3CCN(C)C4)N2)c1O (stereo not drawn)
→ -6%	-8%
Cc1cc(=O)nc2c3ccccc3n(CC(=O)NC(C)c3ccc4c(c3)OCCO4)n12 (stereo not drawn)
→ -10%	-14%
Nc1nc(CSCc2ccccc2)nc(N2CCOCC2)n1
→ -15%	-6%
COc1ccccc1NC(=O)c1ccccc1C(=O)Nc1ccccc1OC
→ -15%	-12%
Cc1ccccc1NC(=O)NC1CCS(=O)(=O)C1 (stereo not drawn)
→ -7%	2%
CCOc1ccc(NC(=O)c2ccc(NC(=O)C3CCCO3)cc2)cc1 (stereo not drawn)
→ -8%	-1%
COC(=O)Cc1c(C)c2cc3c(c(C)c2oc1=O)OCN(CCc1ccc(F)cc1)C3
→ 3%	-2%
CCO[C@H]1OC(C(=O)O)=C[C@@H](c2ccc3c(c2)OCO3)[C@@H]1CCCO
→ 1%	-12%
Cc1ccc(/C=C/C(=O)Nc2nc(-c3cccs3)ns2)cc1
→ u	-18%
Cc1ccc(S(=O)(=O)CCC(=O)NCc2ccccc2Cl)cc1
→ -5%	-24%
CC1(C)Cc2c(c(N3CCOCC3)nc3sc4c(NCC5CCCO5)nnnc4c23)CS1 (stereo not drawn)
→ 10%	i
O=C(NCCN1CCN(c2ccccc2)CC1)c1cccn2c(=O)c3ccccc3nc12
→ 2%	-2%
Cc1nnc(-c2ccco2)c2cn(-c3cccc(Br)c3)nc12
→ -2%	-6%
CCCN(C(=O)c1cc(S(=O)(=O)N2CCCCCC2)ccc1OC)C1CCS(=O)(=O)C1 (stereo not drawn)
→ -5%	-7%
COC(=O)c1ccc(C23CC4(C2)[C@H](CN(Cc2ccc(C(F)(F)F)cc2)[C@@H]4c2ccccc2)C3c2ccc(Cl)nc2)cc1 (stereo partly drawn)
→ -22%	-14%
COCCCn1c(SCC(=O)N2CCc3ccccc32)nnc1-c1ccoc1C
→ -4%	-3%
COc1ccccc1N(CC(=O)NCC1CCCO1)C(=O)Cn1nnc(-c2cccs2)n1 (stereo not drawn)
→ -9%	i
CC1(c2nnnn2Cc2ccccc2)CCC(=O)N1Cc1ccc(F)cc1 (stereo not drawn)
→ -4%	-5%
COc1cc(C(=O)COC(=O)c2ccco2)cc(OC)c1OC
→ -10%	-12%
CCOC(=O)c1sc(NC(=O)c2cc(S(=O)(=O)N3CCOCC3)ccc2C)nc1C
→ -16%	i
COc1cccc(-c2nc(N)nc(SC)c2C#N)c1
→ -15%	-22%
COc1ccc(OC)c2c1sc(=NC(=O)c1cccc(N3C(=O)CCC3=O)c1)n2C
→ -2%	0%
O=C(c1cc(S(=O)(=O)N2CCCC2)c[nH]1)N1CCN(c2cccc(Cl)c2)CC1
→ u	u

Of the compounds above, three have a CF3 group:
Values run as follows: Vaccinia Venus	Vaccinia mCherry
C[C@H]1CN([C@@H](C)CO)C(=O)CCCn2cc(nn2)CO[C@@H]1CN(C)C(=O)Nc1ccc(C(F)(F)F)cc1
→ -13%	-2%
CCOC(=O)Cc1csc(NC(=O)NC2(C(F)(F)F)Oc3ccc(Cl)cc3O2)n1 (stereo not drawn)
→ -32%	x
COC(=O)c1ccc(C23CC4(C2)[C@H](CN(Cc2ccc(C(F)(F)F)cc2)[C@@H]4c2ccccc2)C3c2ccc(Cl)nc2)cc1 (stereo partly drawn)
→ -22%	-14%

New compounds follow
Values run as follows: Vaccinia Venus	Vaccinia mCherry
Cc1ccccc1OCC(=O)NCC(=O)OCc1cccc2ccccc12
→ -10%	32%[activator]
CN(C)S(=O)(=O)c1cccc(NC(=O)COC(=O)/C=C/c2ccco2)c1
→ -10%	-11%
COc1ccc(CN(C(=O)c2cccc(OC)c2)C2CCS(=O)(=O)C2)cc1 (stereo not drawn)
→ -8%	i
CCOc1ccc(C(CC(=O)O)NS(=O)(=O)c2ccc(C)cc2)cc1OC (stereo not drawn)
→ -5%	-5%
O=C1COc2ccc(S(=O)(=O)N3CCc4ccccc43)cc2N1
→ -6%	-14%
CCNc1nc(NCC)n2c(SCC(=O)Nc3cccc(Cl)c3)nnc2n1
→ u	u
Cc1cccc(C(=O)O/N=C(\N)CS(=O)(=O)c2ccccc2)c1
→ -10%	-18%
CN1CCN(C(=O)C2CCC(CNS(=O)(=O)c3cccc4cccnc34)CC2)CC1 (stereo not drawn)
→ -6%	i
O=C(CCCCCn1c(=O)[nH]c2ccccc2c1=O)N1CCN(c2ccc(Cl)cc2)CC1
→ -13%	-14%
Cc1ccc(C)c(CSc2nnc(C)c(=O)[nH]2)c1
→ 6%	i
CCOc1ccccc1CN1CCCC(c2nc(C)ncc2-c2ccc(F)cc2)C1 (stereo not drawn)
→ -6%	-20%
COc1ccc(CN(C)C(=O)c2[nH]c(C)c(C(C)=O)c2C)c(OC)c1OC
→ -8%	i
CCOc1ccc2[nH]cc(S(=O)(=O)c3ccc(Cl)cc3)c(=O)c2c1
→ -26%	-17%
CCCCCC(=O)N1C[C@@H](n2cc(-c3ccc(F)cc3)nn2)[C@H](O)C[C@@H]1c1ccc(OC)cc1
→ -29%	-10%
COc1ccc(CN2C(=O)C(CC(=O)NC3CCCC3)CC(C(=O)N(C(C)C)C(C)C)=C2C)cc1 (stereo not drawn)
→ -8%	-16%
COc1ccc(NC(=O)CCNS(=O)(=O)c2cccc3nonc23)cc1
→ -9%&2%	20%&-1%
CSc1nc2ccccc2n1Cc1c(Cl)cccc1Cl
→ -10%	-16%
C#CCNc1nc(C)nc2c1nnn2Cc1ccccc1F
→ -16%	i
O=C(COc1ccc(S(=O)(=O)N2CCCC2)cc1)N1CCN(c2ccccc2F)CC1
→ -7%	u
CN1CCN(Cc2cn3cccnc3n2)CC1
→ -2%	-11%
COC(=O)[C@@]12C[C@@H](CC(=O)NCCCN3CCCC3=O)C(=O)N(Cc3ccccc3)C1=CCC(C)(C)C2
→ -12%	-11%
Cc1ccc(-n2ncc(C(=O)N3CCN(C4CCCCC4)CC3)c2C2CCN(C(=O)OC(C)(C)C)CC2)cc1
→ -10%	-21%
COc1ccc(OCC(O)Cn2c(=N)n(CCN3CCOCC3)c3ccccc32)cc1 (stereo not drawn)
→ -11%	-22%
COc1ccc(CCn2c3c(c(=O)[nH]c2=S)CN(c2ccccc2)CN3)cc1OC
→ u	-13%
C#CCOCCOCCOCCNc1nc(N2CCN(C(=O)[C@H](Cc3cc4ccccc4[nH]3)n3cc([C@@H](N)Cc4ccc(O)cc4)nn3)CC2)nc(N2CCN(C(=O)[C@H](Cc3cc4ccccc4[nH]3)n3cc([C@@H](N)CC(C)C)nn3)CC2)n1
→ -12%	-9%
Cc1ccc(CNC(=O)c2ccc(N3CCC4(CC3)CC(c3cccc(Br)c3)=NO4)c(NC(=O)c3ccco3)c2)cc1
→ -15%	i
COc1ccc(-c2noc(CSc3nc4ccc(C)cc4[nH]3)n2)cc1
→ -14%	-8%
COc1ccc(/C=N/NC(=O)c2cccc(NC(=O)c3ccc(F)cc3)c2)c(C(=O)O)c1OC
→ -2%	i
CCC(C)N(C(=O)CSc1nc(C)nc2ccccc12)C1CCS(=O)(=O)C1 (stereo not drawn)
→ -6%	-23%
COc1cccc(CNC(=O)C2CCC(=O)N(CCc3cccc(F)c3)C2)c1 (stereo not drawn)
→ -10%	-11%

Remaining list, next part.
mol	Vaccinia Venus	Vaccinia mCherry
CCc1ccc(-c2cc3c(=O)n(CC(=O)N4CCCC4)nc(C)n3n2)cc1	5%	-7%
Cc1cccc(CNC(=O)C2CCN(S(=O)(=O)c3ccc4c(c3)CCCN4C(=O)C3CCC3)CC2)c1	-12%	-16%
Cc1onc(-c2ccccc2Cl)c1C(=O)NC(=S)NCC(=O)c1ccccc1	-18%	-3%
COc1ccccc1CC(=O)NCC(c1ccco1)N1CCCCC1 (stereo not drawn)	-4%	-14%
Cc1ccc(S(=O)(=O)Oc2ccccc2C=C2C(=O)NC(=O)NC2=O)cc1	-4%	-27%
CN(C)c1ccc(C=O)c(O)c1	-9%	-13%
Cc1cccc(C)c1NC(=O)COC(=O)c1c2c(nc3ccccc13)/C(=C\c1ccc3c(c1)OCO3)CCC2	-13%	-1%
Fc1ccc(-c2noc3ncnc(N4CCN(c5ccccc5)CC4)c23)cc1	10%	-1%
CCCCNC(=O)CN1C(=O)CSc2ccc(S(=O)(=O)N3CCC(C)CC3)cc21	-4%	-11%
CCOc1cc(N2CCOCC2)c(OCC)cc1NC(=O)c1cnccn1	-4%	-17%
CCOC(=O)Cc1csc(NC(=O)CSc2nnc3ccccn23)n1	-15%	i
Cc1ccc(C)c(NC(=O)CSc2nc3c(oc4ccccc43)c(=O)n2-c2ccccc2)c1	-14%	i
COc1ccccc1NS(=O)(=O)c1ccc(C)c(NC(=O)NCCCl)c1	-12%	i

Single records (already shown). Values in the order: Vaccinia Venus, Vaccinia mCherry
Cc1ccc(C)c(NC(=O)CSc2nc3c(oc4ccccc43)c(=O)n2-c2ccccc2)c1 is listed with -14%, i
CCCCNC(=O)CN1C(=O)CSc2ccc(S(=O)(=O)N3CCC(C)CC3)cc21 is listed with -4%, -11%
CCOC(=O)Cc1csc(NC(=O)CSc2nnc3ccccn23)n1 is listed with -15%, i
